A488 fluor – qHTS Assay for Spectroscopic Profiling in A488 Spectral Region; AID 591, 2007; compound autofluorescence, A488 spectral region, dye equivalency; active compounds read high; 59,000 tested, 0.1% active; max dye equivalency, M; active = above 10 nM dye equivalent; inconclusive = 1 to 10 nM; inactive = 1 nM or less; about half of its hits are not listed in these tables;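 further: highest value over a series up to 38 µM; compound alone in buffer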
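Readout is A488 dye-equivalent concentration, calibrated by a per-plate six-point Alexa 488 series. Compounds in 100 mM Tris buffer pH 8.0 were incubated 15 min at room temperature. Plates were imaged using 480 nm excitation/540 nm emission filters.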
Resorufin autofl – qHTS Assay for Spectroscopic Profiling in Resorufin Spectral Region. max dye-equivalent concentration, M. 59,000 tested, 0.04% active. Compound fluorescence, resorufin region 547/598 nm, buffer; active compounds read high; active = above 10 nM dye equivalent; inconclusive = 1 to 10 nM; inactive = 1 nM or less; a few of its hits are not listed in these tables; further: highest value over a series up to 38 µM
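Read-out: intrinsic compound fluorescence at ex 547/em 598 nm after 15 min at RT in pH 8.0 Tris (100 mM). Values expressed as resorufin-equivalent concentration from per-plate standard series.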
TSHR ag – qHTS Assay for Agonists of the Thyroid Stimulating Hormone Receptor; HEK293-CNG-TSHR cells (CNG channel as cAMP sensor), membrane potential dye, cAMP; AID 926, 2007; 73,000 tested, 0.48% active; Potency, µM (titrated, usually from 57.1 µM), for the others: at the highest dose activation, usual class: activators; Thyrotropin receptor (Homo sapiens), P16473; active = well fitted activation curve of enough size with the parental cells flat; inconclusive = any curve in the parental cells; inactive = parental cells flat and receptor cells flat or falling; further: potency means the concentration at half of the fitted maximal effect; % of control where 0% means no effect; weak receptor curves with flat parental cells got no call and are not listed
Target sequence (P16473 whole entry, looked up): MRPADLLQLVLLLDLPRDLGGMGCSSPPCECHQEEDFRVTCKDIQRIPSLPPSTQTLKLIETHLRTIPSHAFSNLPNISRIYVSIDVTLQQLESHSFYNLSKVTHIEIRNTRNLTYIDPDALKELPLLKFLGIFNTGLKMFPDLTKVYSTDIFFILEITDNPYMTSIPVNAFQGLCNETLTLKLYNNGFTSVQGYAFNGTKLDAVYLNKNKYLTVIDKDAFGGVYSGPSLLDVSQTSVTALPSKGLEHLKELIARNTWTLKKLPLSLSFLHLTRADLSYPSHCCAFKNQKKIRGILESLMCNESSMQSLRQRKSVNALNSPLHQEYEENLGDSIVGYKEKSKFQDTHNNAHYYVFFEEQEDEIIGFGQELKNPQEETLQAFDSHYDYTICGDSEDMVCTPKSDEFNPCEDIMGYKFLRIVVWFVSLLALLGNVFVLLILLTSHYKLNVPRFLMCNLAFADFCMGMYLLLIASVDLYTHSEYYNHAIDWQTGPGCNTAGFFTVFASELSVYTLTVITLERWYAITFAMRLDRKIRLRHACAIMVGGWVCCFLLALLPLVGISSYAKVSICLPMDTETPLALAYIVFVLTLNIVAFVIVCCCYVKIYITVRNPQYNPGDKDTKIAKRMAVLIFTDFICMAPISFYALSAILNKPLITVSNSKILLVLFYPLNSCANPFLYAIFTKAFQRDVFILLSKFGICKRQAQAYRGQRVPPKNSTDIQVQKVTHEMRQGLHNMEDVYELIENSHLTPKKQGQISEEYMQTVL
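HEK 293 cells stably expressing TSHR and a cAMP-gated CNG channel; parental CNG-only cells as counterscreen. Cells preloaded 60 min with membrane potential dye plus 100 uM RO 20-1724, then compound 30 min; fluorescence read at 590 nm.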
A647 fluor – qHTS Assay for Spectroscopic Profiling in A647 Spectral Region | Compound fluorescence, A647 channel (570/671 nm), Tris buffer | max dye-equivalent concentration, M | 59,000 tested, under 10 active; active means above 1 µM dye equivalent; inconclusive means 0.1 to 1 µM; inactive means 0.1 µM or less;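 further: values scaled relative to a standard on each plate; highest value over a series up to 38 µM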
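Fluorescence read (570 nm ex, 671 nm em) after 15 min RT incubation of compounds in 100 mM Tris buffer, pH 8.0; values expressed as dye-equivalent concentration against a six-point A647 standard series on each plate.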
AID923 – qHTS Assay for Allosteric/Competitive Inhibitors of Caspase-1: Spectroscopic Profiling in AFC Spectral Region; compound fluorescence, AFC spectral region (405/520 nm); almost no hit is shown here; Potency, µM (titrated, usually from 57.5 µM), for inactives: top-dose fluorescence increase, hits mostly activators; 75,000 tested, 1.1% active; AID 923, 2007; active means well fitted activation curve with a large enough effect; inconclusive means small, poorly fitted or top-dose-only effect;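 further: potency means the concentration at half of the fitted maximal effect; 0% is about no effect; scaled to a free AFC standard on each plate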
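Titrations up to 57 uM read every 20 sec for 3 min (405/520 nm) with 50 nM caspase 1 and 5 uM Ac-WEHD-AFC, pH 7.5 HEPES buffer. Fluorescence-vs-time intercept gave baseline, scaled against on-plate AFC standard.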
Starred values were filed as active, the others as inactive; i = inactive; ? = inconclusive; . = no result given; & = joins results of further samples; [ ] = remark or other dose. This is a subset; rates above refer to the full screens.

mol,A488 fluor,Resorufin autofl,TSHR ag,A647 fluor,AID923
CCN(CC)C(=O)c1ccc(NC(=O)Cn2nc(C)c3ccccc3c2=O)cc1,i,i,?,1e-09,-2.6%
CC(C)C(=O)CP(=O)(O)O,i,i,1%[11.4 µM],2.3e-09,1.0%[11.5 µM]
C[N+]1(C)[C@@H]2CC[C@H]1CC(OC(=O)C(CO)c1ccccc1)C2 (some centres not stated),i,i,.,3.1e-08&1e-09,.
CCNC(=O)[C@@H]1O[C@@H](n2cnc3c(N)ncnc32)[C@@H](O)[C@H]1O,i,i,?,6.5e-08,-2.6%
COc1ccc(C(=O)c2c(C)n(CCN3CCOCC3)c3cc(I)ccc23)cc1,.,.,?,.,-0.8%
CCCCCCOc1ccc(CN2CCN(CCO)CC2)cc1,.,.,15%,.,0.3%
O=CN1C[C@H]2C[C@@H](C1)c1cccc(=O)n1C2,i,i,-1%,1e-09,.
COc1ccc2[nH]cc(CCN)c2c1,i,i,?,5.1e-08,-1.4%&-2.0%
CC12CN3CC(C)(CN(C1)C3c1ccncc1)C2=O (configuration not stated),i,i,0%,3.6e-08,0.9%
Cc1ccccc1N,.,.,3%&-3%,.,0.9%&-2.9%
O=C1NC(=O)[C@]2(Cc3ccccc3N3CCN(c4ccccc4)CC32)C(=O)N1Cc1ccccc1 (some centres not stated),i,i,-6%,2.8e-09,0.4%
COc1cc2[nH]c(=O)n(-c3cccc(Cl)c3)c(=O)c2cc1OC,i,i,.,3.1e-09,.
Cc1cc(NC(=O)CSc2nc3c(c(=O)n2-c2ccc(Cl)cc2)SCC3)no1,i,i,?,1e-09,-0.6%
O=C(O)C1CSC(c2cccnc2)N1 (configuration not stated),.,.,-5%,.,2.8%
Cn1c(O)c(C=Nc2ccc(Cl)cc2)c(=O)n(C)c1=O,.,.,8%,.,8.8%
c1ccc2c(CN3CCCCCCC3)c[nH]c2c1,.,.,10%,.,-0.9%
Cc1cc(NC(=O)COC(=O)c2c(C)nn(Cc3ccccc3)c2Cl)no1,i,i,18%,1e-09,0.3%
Cc1ccc(N2C(=O)CC(=O)NC2=O)cc1,i,i,4%,4.8e-08,-3.2%
c1ccc2c(CN3CCN(C4CCCCC4)CC3)c[nH]c2c1,i,i,6%,3e-08,-1.2%
O=c1[nH]c(=O)n(Cc2ccccc2)c(O)c1C=NCCN1CCNCC1,i,i,.,6.2e-08,.
Cc1nccc2c1[nH]c1ccccc12,i,i,?,5.2e-08&2.2e-09,10%
CN(C)CCCNc1c2c(nc3ccc(Cl)cc13)CCCC2,i,i,?,1.9e-08,1.5%[11.5 µM]
C[C@@]12CCC[C@](C)(C(=O)O)[C@@H]1CCc1ccc(O)cc12,i,i,-2%,1e-09,.
CC(Cc1ccccc1)[n+]1cc(/N=C(\N)[O-])on1 (configuration not stated),i,i,5%,3e-09,1.3%
O=C(O)C(O)(c1ccccc1)C1CCCC1 (configuration not stated),i,i,3%,1e-09,-0.2%
CC(=O)N1CC(=O)Nc2ccc(Cl)cc2C1c1ccc(F)cc1 (configuration not stated),i,i,14%,6e-09,-0.6%
O=C(CCN1CC2CCC(CC2)C1)c1cccs1,i,i,-4%[11.4 µM],9.2e-09,3.0%[11.5 µM]
Cc1cccc(N)c1C,.,.,-1%,.,1.6%
O=[As](O)(O)c1ccc2nc3cc([As](=O)(O)O)ccc3nc2c1,i,i,0%[11.4 µM],1e-09,-1.7%[11.5 µM]
C[C@@]12CC[C@H]3[C@@H](CC[C@@H]4C[C@H](O)CC[C@]43C)[C@H]1CC[C@H]2O,i,i,?,1e-09,-0.8%
O=C(O)C(Cl)Cl,.,.,-1%,.,-2.7%
O=[N+]([O-])c1ccc2c3c(cccc13)CC2,.,.,0%,.,1.3%
COc1ccccc1OCCCn1cc(C(=O)c2ccco2)c2ccccc21,i,i,?,4.6e-08,2.0%
COC(=O)C(O)(c1c[nH]c2ccccc12)C(F)(F)F (configuration not stated),i,i,.,2.3e-08,.
Cc1ccc(C)c(CN2CCC(n3nnc4cc(F)ccc43)CC2)c1,i,i,21%,2e-09,-0.4%
Ic1cncc(OC[C@@H]2CCN2)c1,.,.,0%,.,2.0%
CN=C(NC#N)NCCSCc1nc[nH]c1C,i,i,?,1e-09,3.2%&1.0%
COc1ccc(-n2nc(C(F)(F)F)cc2-c2ccc(Cl)cc2)cc1,i,i,?,1e-09,-1.5%
O=c1c2ccccc2nc(-c2ccccc2)n1-n1cccc1,.,.,24%,.,-1.3%
Cn1c(=O)cc(SCC(=O)N2CCC3(CC2)OCCO3)c2ccc(Cl)cc21,i,i,9%,2e-09,0.2%

Individual results from above:
O=c1c2ccccc2nc(-c2ccccc2)n1-n1cccc1 – TSHR ag: 24%
C[C@@]12CCC[C@](C)(C(=O)O)[C@@H]1CCc1ccc(O)cc12 – A647 fluor: 1e-09
O=C(O)C(Cl)Cl – TSHR ag: -1%
O=[As](O)(O)c1ccc2nc3cc([As](=O)(O)O)ccc3nc2c1 – TSHR ag: 0%[11.4 µM]
O=C(O)C(O)(c1ccccc1)C1CCCC1 (configuration not stated) – TSHR ag: 3%
CN=C(NC#N)NCCSCc1nc[nH]c1C – AID923: 3.2%&1.0%

Going on with the list.
mol,A488 fluor,Resorufin autofl,TSHR ag,A647 fluor,AID923
CC(=O)N(C1=NCCCS1)c1ccccc1F,i,i,-5%,3.4e-09,0.0%
CC(=O)c1c(O)n(C2CCCCCC2)c(=O)[nH]c1=O,i,i,-5%,1.4e-08,-2.9%
O=C(O)CNCP(=O)(O)O,i,i,-2%[11.4 µM],1e-09,1.4%[11.5 µM]
COC(=O)C(O)(c1ccc(NC(=O)c2ccco2)c(OC)c1)C(F)(F)F (configuration not stated),i,i,.,3.1e-09,.
NC1CCCCC1N=Cc1c(O)n(Cc2ccc(F)cc2)c(=O)[nH]c1=O (configuration not stated),i,i,-2%,4.6e-09,0.4%
Cc1nc(N)sc1CCN,.,.,-3%,.,-2.3%
CN1CC[C@@]23CCCC[C@@H]2[C@@H]1Cc1ccc(O)cc13,i,i,7%,1.2e-08&1.9e-08,-2.0%
O=c1[nH]c(=O)n(Cc2ccccc2)c(O)c1C=Nc1ccc(CN2CCOCC2)cc1,i,i,?,1.4e-08,5.2%
C=C1C/C(=C\C)C(=O)O[C@@H]2CCN3CC=C(COC(=O)[C@]1(C)O)[C@H]23,i,i,-1%,1e-09,.
CC1=C(C(=O)Nc2ccccc2)SCCO1,i,i,0%,4.5e-08,1.4%
CC1CCCCN1CC(=O)c1ccc2cc[nH]c2c1 (configuration not stated),.,.,-1%,.,3.9%
Cc1nc2ccccc2c(=O)n1-c1cccc(O)c1,i,i,1%,1e-09,-1.3%
COC(=O)c1ccc(N2C(=O)CC(N3CCC(n4c(=O)[nH]c5ccccc54)CC3)C2=O)cc1 (configuration not stated),i,i,-13%,1e-09,-0.7%
CN(C)c1ccccc1,.,.,-7%,.,-2.7%
N#CC(Cl)Cl,.,.,0%,.,-0.2%
CCCCN1C(=O)NC(=O)C2(Cc3ccccc3N3CCOCC32)C1=O (configuration not stated),i,i,-7%,7.5e-09,2.1%
NC(N)=NCCN=C(N)N,i,i,-1%[11.4 µM],4.7e-09,-0.1%[11.5 µM]
CC[C@@H]1[C@@H]2Cc3ccc(O)cc3[C@@]1(CC)CCN2C,i,i,16%[11.4 µM],3e-08,-1.3%[11.5 µM]
COc1cccc(CNC2CN3CCC2CC3)c1OC (configuration not stated),i,i,-3%,1e-09,1.2%
CCCC(=O)C1C(=O)NC(=O)NC1=O,i,i,16%,1e-09,-2.9%
CC(C)NS(=O)(=O)c1ccc(OCC(=O)N2CCN(Cc3ccccc3)CC2)cc1,i,i,-10%,5.2e-09,-0.9%
O=C(c1ccco1)N1CCN(Cc2ccccc2C(F)(F)F)CC1,.,.,?,.,-0.4%
CCC(=NC1CCN(Cc2ccccc2)CC1)c1c(O)[nH]c(=O)[nH]c1=O,i,i,2%[11.4 µM],1e-09,2.1%
CC(C)[C@@]1(NC(=O)[C@@H]2C[C@H]3c4cccc5[nH]cc(c45)C[C@@H]3N(C)C2)O[C@@]2(O)[C@H]3CCCN3C(=O)[C@H](Cc3ccccc3)N2C1=O,.,.,2%&-17%,.,2.0%&-3.2%
O=P1(Nc2ccc(F)cc2)COc2ccccc2OC1,i,i,3%,2.4e-08,0.1%
Cc1nn(-c2ccccc2)c2c1C(c1ccc3c(c1)OCO3)SCC(=O)N2 (configuration not stated),i,i,10µM*,4.2e-08,-1.8%
Cc1ccc(C[N+](C)(C)C)o1,.,.,24%,.,-2.5%&-1.3%
Cc1ccc2nsnc2c1-n1c(C)nc2ccccc2c1=O,i,i,-7%,1e-09,1.0%
C=CCn1c(O)c(C(CC)=Nc2ccccc2NC(C)=O)c(=O)[nH]c1=O,i,i,-3%,3.7e-08,-1.3%
O=C(Nc1cccc(OC(=O)N2CCCCC2)c1)N1CCCCC1,i,i,.,2.9e-09,1.4%
C=CCc1ccc2c(c1)OCO2,.,.,6%,.,-1.0%
COC(=O)C(O)(c1ccc2c(c1)CCCN2)C(F)(F)F (configuration not stated),i,i,7%,2.4e-09,0.7%
CCCNS(=O)(=O)c1ccc(OCC(=O)N2CCN(Cc3ccc4c(c3)OCO4)CC2)cc1,i,i,3%,1.3e-08,-1.3%
C(=C\c1ccccc1)/CN1CCN(Cc2ccc3c(c2)OCCO3)CC1,.,.,?,.,7.9%
O=C1Nc2ccccc2C2(CCN(CCc3ccc(C(F)(F)F)cc3)CC2)O1,.,.,?,.,1.2%
N[C@H](Cc1o[nH]c(=O)c1Cl)C(=O)O,.,.,10%,.,-1.9%
Nc1c(C(=O)NCc2ccco2)c2nc3ccccc3nc2n1CCN1CCCCC1,i,i,.,1e-09,.
CNCC/C=C\c1cccnc1,.,.,1%,.,-0.1%
CCCCCCCCOC(=O)c1ccccc1C(=O)OCCCCCCCC,.,.,-2%,.,5.1%
COC(=O)[C@@H](N)CCCN=C(N)N[N+](=O)[O-],.,.,-3%,.,0.6%
CN(C)CP(=O)(Nc1ccccc1)N(C)C (configuration not stated),i,i,11%,2.6e-08,0.1%
N#CC(C#N)=Cc1ccc(O)c(O)c1,i,i,?,4.9e-08,-3.8%
Nc1cccc(Cl)c1,.,.,4%,.,-0.8%
O=C(CN1CC(c2ccccc2)CC1=O)Nc1cccc(F)c1 (configuration not stated),.,.,-10%,.,-2.1%
O=C(NCc1ccc(C(=O)N2CCC3(CC2)OCCO3)cc1)c1ccc2c(c1)OCO2,i,i,1%,9.9e-09,2.3%
CN(C)c1ccc(N(C)C)cc1,.,.,?,.,1.7%
CCCNC(=O)N1C2CCC1CC(O)(c1cccnc1)C2 (configuration not stated),i,i,-1%,1.3e-09,0.9%
O=C(Cl)c1ccccc1F,.,.,0%,.,-0.4%

Profiles as entered above. Values in the order: A488 fluor, Resorufin autofl, TSHR ag, A647 fluor, AID923
Results for `CC(=O)c1c(O)n(C2CCCCCC2)c(=O)[nH]c1=O` → i, i, -5%, 1.4e-08, -2.9%
Results for `Cc1ccc(C)c(CN2CCC(n3nnc4cc(F)ccc43)CC2)c1` → i, i, 21%, 2e-09, -0.4%

Screening results from PubChem.
